Compound activity: PubChem, ICCB-Longwood Screening Facility, Harvard Medical School
S aureus helic = S. aureus DNA helicase inhibition. purified S. aureus helicase, fluorescence unwinding assay; about half of the hits fall short of the stated cut. inhibition, %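 (tested at about 80 µM)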. 0.05% of 120,000 active;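 active = both duplicates at 50% or more, or one of them with a favoured structure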;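 note: 0% = mean of negative control wells and 100% = mean of positive control wells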
MgrA DNA FP = modulators of Staphylococcus aureus MgrA DNA binding; inhibition, %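 (about 10 µg/mL by stock and volumes)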; 0.13% of 84,000 active; fluorescence polarization;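 active = above 50% in either of two replicates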;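 note: 0% = protein plus DNA without compound and 100% = DNA alone without protein; higher means less MgrA bound to DNA so lower polarization; one replicate is shown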
Numbers without * were called inactive; . = no result given; & = joins results of further samples.

SMILES	S aureus helic	MgrA DNA FP
CCOC(=O)c1ccccc1NC(=O)c1ccco1	0	4.8
O=C(Oc1c(Cl)cc(Cl)c2cccnc12)c1ccco1	32	.
COc1cc2nc(CSc3ccc(Cl)cc3)n(CC#N)c(=O)c2cc1OC	-1	.
CCn1c(SCC(=O)OCC(=O)Nc2ccc3ccccc3c2)nnc1-c1cccs1	-6	.
COc1ccc(C2(O)CCN(CC(=O)NC(C)C)CC2)cc1	1	1.0
CCN(CC)C(=O)CSc1ncc(CO)n1Cc1ccccc1	6	.
N#CC1=C(N)n2ncnc2NC1c1ccc(F)cc1 (stereo unspecified)	-2	-2.0
Cc1ccc(CN(C)C(=O)c2ccc(S(=O)(=O)N3CCCCC3)cc2)o1	-20	.
c1cc2c(cc1-c1nn[nH]n1)OCO2	13	-3.2
Cc1cn(S(=O)(=O)c2ccc(F)cc2)cn1	10	-0.8
Cc1cc2c(=O)oc(-c3ccc(C(C)(C)C)cc3)nc2s1	.	-0.9
CCOc1ccc(N=c2scc(-c3ccco3)n2/N=C/c2c[nH]c3ccccc23)cc1	-9	.
O=S1(=O)CCN(Cc2csc(-c3cccs3)n2)CC1	.	-0.4
O=C(c1ccccc1)N1CCN(C(=O)c2nn3c(c2Cl)NC(c2ccco2)CC3C(F)(F)F)CC1 (stereo unspecified)	.	0.9
CCOc1cccc2cc(C(=O)NC(C)=O)c(=Nc3ccc(C(C)=O)cc3)oc12	.	4.9
COC(=O)Cn1c(CCS(=O)(=O)c2ccc(Br)cc2)nc2ccccc21	13	.
CN(C(=O)COC(=O)C1CCN(S(=O)(=O)c2cccs2)CC1)c1ccccc1	-16	.
Cc1ccc(C(=O)COC(=O)c2c(F)cccc2F)cc1	-26	0.2
Cc1cc(O)c(C(C)C)cc1NC(=O)c1ccccc1	6	-2.4
Cn1c(C(C)(C)C)n[nH]c1=S	.	-0.5

Next part; it opens with the two that closed the last part.
SMILES	S aureus helic	MgrA DNA FP
Cc1cc(O)c(C(C)C)cc1NC(=O)c1ccccc1	6	-2.4
Cn1c(C(C)(C)C)n[nH]c1=S	.	-0.5
COc1ccc(-c2coc3cc4oc(=O)c5c(c4cc23)CCC5)cc1F	24	.
N=c1oc2ccccc2cc1C(=O)Nc1ccc(F)cc1	-14	0.8
O=C(OCc1ccco1)c1ccc(Cl)cc1	4	0.7
CCCc1cc2c(=O)c(-c3ccc(C(=O)OCC)o3)coc2cc1OC	-1	.
O=C1C2C3C=CC(C3)C2C(=O)N1c1nccs1 (stereo unspecified)	2	.
Cn1cccc1C1=C(C#N)C(c2c(Cl)cccc2Cl)C(C#N)=C(N)O1 (stereo unspecified)	.	-0.5
O=[N+]([O-])c1cc(C(F)(F)F)cc([N+](=O)[O-])c1Sc1n[nH]c(C(F)(F)F)n1	.	2.5
Cc1cccc(N=c2scc(-c3cc4ccccc4o3)n2C2CC2)c1	6	.
COc1ccc(C(=O)N2CCn3cccc3C2c2ccccc2)cc1OC (stereo unspecified)	15	-2.4
Cc1onc(-c2ccccc2)c1C(=O)N=C(N)c1ccc(Cl)cc1	.	-1.9
Cn1nccc1NC(=O)c1ccc(Cl)c(Cl)c1	-19	.
CC1CN(c2ccc(Cl)nn2)CC(C)O1 (stereo unspecified)	9	.
CCOC(=O)c1cnc2ccc(OCC)cc2c1NC(C)CC (stereo unspecified)	10	0.8
O=C(c1ccccc1)C(C(=O)N1CCCCC1)n1ccccc1=O (stereo unspecified)	-5	-2.6
CCn1c(=O)c2cc(C(=O)N(Cc3ccco3)C3CCCCC3)sc2c2ccccc21	-19	.
Cc1cc(C)c(N=C(N)NN)cc1C	.	2.0
CC(C)c1ccc2[nH]c(O)c(N=NC(=O)c3nn(C)c(=O)c4ccccc34)c2c1	10	.
O=C1CCCN1C(=O)CSc1nc2sc3c(c2c(=O)n1Cc1ccco1)CCCC3	8	.
COC(=O)c1scc(C)c1NC(=O)C1CC1	.	-3.2
Cc1ccc(C(=O)C2CCNCC2)cc1	.	2.6
S=c1[nH]nc(-c2ccncc2)n1-c1ccc2c(c1)OCCO2	4	3.7
Cc1cc(NC(=O)COCc2cc(-c3ccco3)on2)no1	0	.
Cc1oc(S(=O)(=O)N2CCCC2)cc1C(=O)Nc1ccccc1	.	-0.6
O=C1NC(=Nc2ccc(F)cc2)S/C1=C/c1ccc(N2CCCCCC2)o1	-83	.
COC(=O)C(Cc1c[nH]c2ccccc12)NC(=O)c1cncc(Br)c1 (stereo unspecified)	.	-0.7
CCOc1ccc(-n2c(SCC)nc3c([nH]c4ccccc43)c2=O)cc1	-2	1.6
Brc1cccc(-c2cn3ccsc3n2)c1	-10	3.6
C=CCOc1ccc(CNn2cn[nH]c2=S)cc1	1	1.9
CCOC(=O)CNC(=O)c1ccc([N+](=O)[O-])cc1	.	-0.9
CN(C)S(=O)(=O)c1cccc2c(S(=O)(=O)N(C)C)cccc12	-16	.
Cc1occc1-c1nnc2sc(-c3cccc(F)c3)nn12	2	5.7
Cc1nn(CC(=O)N2CCCC2)c(=O)c2cc3ccccc3n12	-23	.
COc1ccc(C(=O)COC(=O)C23CC4CC(CC(C4)C2)C3)cc1	-26	3.0
C=CCn1c(=O)c2ccccc2c2ccccc2c1=O	5	.
COc1ccc(NC(=O)c2ccn[nH]2)cc1	-6	-1.1
O=C(CCn1c(=O)c2cccn2c2cccnc21)N1CCCCCC1	-12	.
O=C(OC1(C#CCN2CCCCC2)CCCCC1)c1ccccc1	5	-2.2
COc1ccc(CN(C(=O)/C=C\C(=O)O)C2CC(=O)N(c3ccccc3)C2=O)cc1 (stereo unspecified)	16	.
Cc1c(C(=S)NC(=O)C2CC2)c(=O)n(-c2ccccc2)n1C	-64	.
CN(C)c1ccc(-c2nc3ccc(C(=O)O)cc3s2)cc1	1	.
CCn1c(O)c(C(C)=Nc2ccccc2C(=O)NC2CC2)c(=O)n(CC)c1=S	-8	.
COc1cc(C(=O)Nc2ccc(O)cc2)c2ccccc2n1	-4	-0.5
CCC(C)N(C(=O)c1c(F)c(F)c(F)c(F)c1F)C(C)CC (stereo unspecified)	7	2.2
CC(/C=C/c1c[nH]c2ccccc12)=C\C(=O)O	-6	.
Cc1nn(C(C)(C)C)c2c1C(c1ccccn1)C1=C(CC(C)(C)CC1=O)N2 (stereo unspecified)	6	-2.8
CCCCn1c(=NC(=O)c2ccccc2)c(C(=O)OCC)cc2c(=O)n3ccccc3nc21	8	1.1
O=C(Nc1ccc(-c2cnco2)cc1)c1ccc(F)cc1F	.	-1.4
Cc1ccccc1OCC(=O)Nc1ncccn1	-7	-1.7
CCN(C(=O)C1CCC(C(=O)N(CC)c2ccccc2)CC1)c1ccccc1 (stereo unspecified)	5	-0.5
COc1ccc(CNC(=O)CSc2nc3ccc(OC)cc3[nH]2)cc1	.	-1.6
Cc1cccc(N(C)Cc2cc(=O)n3oc(C)cc3n2)c1	-1	.
Nc1nonc1C(=O)OCC(=O)c1ccc(Cl)cc1	16	.
NC1C2CC3CC(C2)CC1C3 (stereo unspecified)	-6	.
C[C@]1(NC(=O)CN2CCCCC2)CCCCC1c1ccc(O)cc1 (stereo partly specified)	-3	.
Cc1cc(NCc2cccc(Cl)c2Cl)no1	.	0.2
Cc1cccc(NC(=O)Cc2coc3ccc(C)cc23)c1	-2	0.6
CCCn1cc(C(CC(=O)O)C(=O)O)c2ccccc21 (stereo unspecified)	-5	-1.1
Cc1nc2n(CC(=O)N3CCCCC3)c3ccccc3n2n1	19	-4.6
CCCNC(=O)c1ccc2c(c1)ncn2-c1ccccc1OC	3	.
Cc1noc(C)c1COc1ccc(C(=O)NC2=NCCS2)cc1	0	.

Seven consecutive compounds from above:
SMILES	S aureus helic	MgrA DNA FP
CCN(CC)C(=O)CSc1ncc(CO)n1Cc1ccccc1	6	.
N#CC1=C(N)n2ncnc2NC1c1ccc(F)cc1 (stereo unspecified)	-2	-2.0
Cc1ccc(CN(C)C(=O)c2ccc(S(=O)(=O)N3CCCCC3)cc2)o1	-20	.
c1cc2c(cc1-c1nn[nH]n1)OCO2	13	-3.2
Cc1cn(S(=O)(=O)c2ccc(F)cc2)cn1	10	-0.8
Cc1cc2c(=O)oc(-c3ccc(C(C)(C)C)cc3)nc2s1	.	-0.9
CCOc1ccc(N=c2scc(-c3ccco3)n2/N=C/c2c[nH]c3ccccc23)cc1	-9	.

Remaining list, next part.
SMILES	S aureus helic	MgrA DNA FP
CCn1c(C)[n+](CC)c2ccc(S(N)(=O)=O)cc21	22	.
O=C(CSc1nc(N2CCCCC2)nc(N2CCCCC2)n1)N1CCc2ccccc21	6	-1.7
COc1ccc(-c2noc(CSc3nnc(-c4ccncc4)n3CC(C)C)n2)cc1	-9	.
O=C(NCCCc1ccccc1)C1c2ccccc2Oc2ccccc21	-7	0.3
Cc1cnc(=O)[nH]c1SCc1cccc(C(F)(F)F)c1	16	.
COc1ccccc1C=NC12CN3CN(CN(C3)C1)C2	-7	3.0
O=c1c2c([nH]c3ccccc13)CCC2	-7	3.4
N#CCc1nnc(N2CCOCC2)n1-c1ccccc1	-6	.
Cc1nn(-c2ccccc2)c(C)c1-c1nnc(C(F)(F)F)o1	.	2.4
Cc1nc(-c2ccc(NC(=O)C(C)(C)C)cc2)c(-c2ccccc2)o1	.	0.2
COc1ccccc1OCC(O)CO (stereo unspecified)	.	-1.2&2.8
CC(C)Cn1c(SCCc2ccccc2)nnc1-c1cccc(S(=O)(=O)N2CCOCC2)c1	12	.
C/C(=N\OCc1nnc(-c2cccs2)o1)c1cc2ccccc2o1	-4	.
O=C1Cc2cc(C(=O)CSc3ccc4c(c3)OCCCO4)ccc2N1	-10	.
Cc1cc(NC(=O)COC(=O)COc2ccc3c(c2)CCC3)no1	-14	.
CC(=O)Nc1ccc2nc3c(cc2c1)[nH]c1ccccc13	1	2.5
Nc1nc(-c2ccccc2)nc(-c2ccccc2O)n1	-1	.
CCOC(=O)c1cn2c3c(c(F)c(F)cc3c1=O)OCC2C (stereo unspecified)	-14	.
Cc1cc(-c2ccsc2)n[nH]c1=O	2	.
CCC(Sc1nc2ncccc2o1)C(=O)Nc1ccccc1C(F)(F)F (stereo unspecified)	-2	.
Cc1ccc(S(=O)(=O)NC2=NCN(C)CN2)cc1	7	1.6
O=C(O)C1Cc2c([nH]c3ccccc23)C(c2ccccc2Br)N1 (stereo unspecified)	.	0.2
COc1ccc(OC)c(NC(=O)CCNS(=O)(=O)c2ccc3[nH]c(=O)oc3c2)c1	21	.
CCn1cc(C(=O)NC2CCCCCC2)c(=O)c2cc(S(=O)(=O)N(C)C)ccc21	15	-1.8
Cc1ccc(CS/C(N)=N/N)cc1	.	-2.3
COC(=O)/C=C/c1ccc2c(c1)OCO2	.	0.0
CC(=O)NC1CCC(C(=O)O)(c2ccccc2)C1 (stereo unspecified)	4	-3.6
CCOC(=O)N1CCC2(CC1)OC(=O)C(C)=C2C(=O)NCCc1ccc(Cl)cc1	13	.
O=C(NCc1ccc2c(c1)OCO2)c1sc(=S)n2c1[nH]c(=O)c1ccccc12	-10	1.6
COc1ccc(C)cc1NCc1ccccc1C	2	-0.7
O=C(OCC(=O)N1CCCC1)c1ccc(O)cc1	22	1.1
O=C(O)C(Sc1nncc2ccccc12)c1ccccc1 (stereo unspecified)	.	-0.1
COc1ccc(-c2cc(C(F)F)nc(NN)n2)cc1	37	.
N#C/C(=C\c1ccc(C(F)(F)F)cc1)c1ccc(OCc2ccc(Cl)cc2)cc1	.	-1.4
O=C(O)COc1ccc2c(c1)C(=O)CC1(CCCCC1)O2	7	.
CCNc1nc(NC(C)C)nc(OCCOC(C)=O)n1	6	1.4
Cc1[nH]ccc(=O)c1Oc1ncc(C(F)(F)F)cc1Cl	.	0.6
CCSc1nnc(NC(=O)CSc2c[nH]c3ccccc23)s1	-2	.
CCOc1cccc(/C=N/NC(=O)c2ccncc2)c1O	5	7.5
CCCCN(C(=O)C1CCCO1)c1ccccc1 (stereo unspecified)	1	-1.2

Two of the compounds above, field by field:
> CCOc1cccc(/C=N/NC(=O)c2ccncc2)c1O
- S aureus helic: 5
- MgrA DNA FP: 7.5

> CCCCN(C(=O)C1CCCO1)c1ccccc1 (stereo unspecified)
- S aureus helic: 1
- MgrA DNA FP: -1.2

Further entries.
SMILES	S aureus helic	MgrA DNA FP
CCSCc1nc2ccccn2c1Br	-26	1.4
O=C(O)CSc1ccc(C(F)(F)F)cc1[N+](=O)[O-]	.	1.0
OC1(C#CC#CC2(O)CCCCC2)CCCCC1	4	-11
COc1ccc(NC(=S)N2CCN(Cc3c(C)nn(C)c3C)CC2)cc1OC	4	4.9
O=C(O)c1cccc2c(CN3CCN(C(c4ccccc4)c4ccccc4)CC3)c[nH]c12	11	.
Oc1ccccc1C(Nc1nccs1)c1ccc2cccnc2c1O (stereo unspecified)	-23	.
Oc1c(C(c2ccccn2)N2CCCCC2)ccc2cccnc12 (stereo unspecified)	-5	2.2
O=c1[nH]c2ccccc2c2nc(-c3ccccc3)nn12	5	0.8
O=C(O)CNC(=O)/C=C\c1ccccc1	5	.
CCN(c1ccccc1)S(=O)(=O)c1cnc[nH]1	8	.
Cc1cc(NC(=O)c2cccc(S(=O)(=O)N3CCOCC3)c2)no1	4	-3.0
O=C(CCC1COc2ccccc2O1)Nc1ccc(C(=O)N2CCCC2)cc1 (stereo unspecified)	0	.
CCOc1ncccc1C(=O)N1CCN(S(=O)(=O)c2ccc(Br)cc2Cl)CC1	3	.
COCCOC(=O)C1=C(N)OC2=C(C(=O)CC(C)(C)C2)C1c1ccccc1[N+](=O)[O-] (stereo unspecified)	.	3.8
COc1ccc(Nc2nc3nonc3nc2Nc2ccc(OC)cc2)cc1	.	3.0

3 structures already listed, sorted by molar mass, high to low:
SMILES	S aureus helic	MgrA DNA FP
N#CCc1nnc(N2CCOCC2)n1-c1ccccc1	-6	.
CCOC(=O)c1ccccc1NC(=O)c1ccco1	0	4.8
COc1ccc(NC(=O)c2ccn[nH]2)cc1	-6	-1.1

This is a subset. The share of hits here may be higher or lower than overall.
